OX1R antag-1: antagonists of human orexin 1 receptor (OX1R); O43613; OX1R-expressing cells, FRET antagonist read-out; inhibition, % at 6.6 µM; actives 1.8% (n = 330,000); AID 485270; in the data active = inhibition mostly above about 38%, no sharp cut-off; inactive = mostly below about 40%;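 also: 0% = agonist challenge alone and 100% = reference antagonist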
Target sequence (O43613 whole entry, looked up): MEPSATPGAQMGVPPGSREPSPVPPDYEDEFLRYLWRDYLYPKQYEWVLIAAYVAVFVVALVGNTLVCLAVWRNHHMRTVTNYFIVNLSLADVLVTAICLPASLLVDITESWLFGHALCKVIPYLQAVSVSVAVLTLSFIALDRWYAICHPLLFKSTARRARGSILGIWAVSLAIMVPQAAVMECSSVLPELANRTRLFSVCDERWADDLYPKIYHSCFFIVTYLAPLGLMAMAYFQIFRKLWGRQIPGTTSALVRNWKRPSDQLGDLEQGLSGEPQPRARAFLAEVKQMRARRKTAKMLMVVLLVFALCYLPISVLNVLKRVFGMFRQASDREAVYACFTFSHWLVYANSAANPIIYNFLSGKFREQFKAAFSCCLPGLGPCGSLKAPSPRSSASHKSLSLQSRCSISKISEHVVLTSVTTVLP
OX1R antag-2: human HCRTR1 antagonism; O43613; CHO/OX1R cells, Fluo-8 calcium fluorescence, orexin A; inhibition, % at 5 µM; actives 0.43% (n = 330,000); AID 434989;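 active = inhibition above its plate's threshold, mean inhibition of all tested compounds on the plate plus 3 SD, cut at about 37% in these data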;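 also: 0% = orexin A challenge wells and 100% = SB-334867-A antagonist wells; not every result past the cut was called active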
Starred values were filed as active, the others as inactive; & = joins results of further samples.

Order of values – OX1R antag-1 | OX1R antag-2
COc1ccc(Cl)cc1C(=O)NCCCSc1ccccc1
 : 17 | -15
COc1ccc(-c2csc3ncnc(N4CCN(S(=O)(=O)c5cccc(F)c5)CC4)c23)cc1
 : -1 | -51
CCOC(=O)N1CCC(NC(=O)CCC(=O)c2ccccc2)CC1
 : 16 | -1
Cc1ccc(NC(=O)CSCC(=O)N(C)CC(=O)Nc2cccc3ccccc23)cc1
 : 34 | -19
CCc1c(C(=O)OCc2ccccc2)[nH]c(C)c1C
 : 6 | -21
O=C(Oc1ccc(/C=N/Nc2nc(N3CCCCC3)nc(N3CCCCC3)n2)cc1)c1ccco1
 : 7 | -6
COc1ccc(S(=O)(=O)N(C)CC(=O)Nc2ccccc2C(F)(F)F)cc1
 : 6 | -24
CCCCCC/C=N/Nc1nnc(Cc2ccc(OC)c(OC)c2)c(=O)[nH]1
 : 15 | -26
CN(Cc1ccccc1)S(=O)(=O)c1ccc(Cl)c(C(=O)NCc2ccc3c(c2)OCO3)c1
 : 36 | -14
O=C1Nc2ccccc2/C1=N\c1sc2c(c1C(=O)Nc1ccccc1)CCCC2
 : 11 | -20
CCc1sc(C(=O)Nc2cc(Cl)ccc2N2CCCCC2)cc1C
 : 39 | -41
C/C(CC(=O)Nc1cc(Cl)ccc1Cl)=N\NC(N)=S
 : 6 | -7
COC(=O)c1ccccc1S(=O)(=O)N(Cc1cc2ccc(OC)cc2[nH]c1=O)CC1CCCO1 (stereo not given)
 : 5 | -22
CC(=O)c1cc(C#N)c(SCC(=O)OC(C)C)nc1C
 : 11 | 3
O=C(NC(=S)Nc1ccc(CN2CCCCC2)cc1)c1cccc(OCc2ccccc2)c1
 : 18 | -21
COc1cccc(-c2nc(-c3ccc4c(c3)-c3ccccc3S4(=O)=O)c(-c3ccccc3)[nH]2)c1OC
 : 15 | -39
COc1cnc(SCc2ccc(Cl)c(Cl)c2)nc1Cl
 : 19 | -15
CC(C)CC(=O)OCc1cn(-c2ccccc2)nn1
 : 5 | -10
Cc1nc2c3ccccc3nc(SCC(=O)N3CC(C)CC(C)C3)n2n1 (stereo not given)
 : 13 | -35
Cc1ccccc1Oc1nc2ccccc2n2cnnc12
 : -2 | -13
O=[N+]([O-])c1ccc(CSc2nnc(-c3cnccn3)o2)cc1
 : 36 | -12
Cc1onc(-c2ccccc2Cl)c1C(=O)OCC(=O)c1ccc2c(c1)OCCO2
 : 12 | -13
CCOc1cc(N2CCOCC2)c(OCC)cc1NC(=O)CSc1nccc(C)n1
 : 10 | -22
COCCNC(=O)C(c1ccc(C)o1)N(Cc1cccs1)C(=O)c1snc(C(N)=O)c1N (stereo not given)
 : 13 | -24
CC(=O)NS(=O)(=O)c1ccc(NC(=O)C2C3C=CC(C3)C2C(=O)O)cc1 (stereo not given)
 : 7 | -2
O=C(COc1ccccc1[N+](=O)[O-])Nc1ccccc1N1CCCCC1
 : 16 | -52
CCc1nnc(NS(=O)(=O)c2ccc(N3C(=O)c4ccc(C(=O)O)cc4C3=O)cc2)s1
 : 4 | 0
Cc1ccc(S(=O)(=O)N(C)C)cc1NC(=O)CSc1ncc(C(F)(F)F)cc1Cl
 : 31 | -30
O=C(CN1CCN(S(=O)(=O)c2ccc(F)cc2)CC1)Nc1ccccc1F
 : -4 | -19
COc1cc(OC)c(OC)cc1CN1CCC(O)CC1
 : 6 | 13
Cc1ccc2cc(CCNC(=O)c3cccc([N+](=O)[O-])c3)c(=O)[nH]c2c1C
 : 9 | -11
N=C(N)c1ccccc1
 : 11&8 | 0&5
CC(C)Nc1nc(NC(C)C)nc(Nn2cnnc2)n1
 : 10 | -11
Nc1nccnc1C(=O)OCc1nc2sc3c(c2c(=O)[nH]1)CCCC3
 : 20 | -12
CCCCN(C)C(=O)c1cn(CC)c2ccc(S(=O)(=O)N(C)C)cc2c1=O
 : 13 | 9
CCOc1cc(C(=O)NC(=S)Nn2cnnc2)cc(OCC)c1OCC
 : 19 | -6
O=C(O)CCc1nc2ccccc2c(=O)[nH]1
 : 3 | 5
CCOc1ccc(NS(=O)(=O)c2ccc(C(=O)NNC(=O)c3ccccc3O)cc2)cc1
 : -1 | 8
O=C(CCl)Nc1cccc(-c2cnc3ccccc3n2)c1
 : 24 | -12
CCc1cccc(CC)c1N(COC)C(=O)Cn1ccccc1=N
 : 13 | -1
COc1ccc2nc(N3C(=O)CC(Cc4ccc(Cl)cc4)C3=O)sc2c1 (stereo not given)
 : 19 | -19
O=c1c2ccccc2cnn1-c1ccc(Cl)cc1
 : 8 | -13
CN(C)C(=O)c1sccc1Oc1ccc(F)cc1[N+](=O)[O-]
 : 44 | -15
Cc1ccc(N2CCN(S(=O)(=O)N3CCCCCC3)CC2)cc1Cl
 : 4 | -10
CCn1c(=O)n(CC(=O)NCc2ccco2)c(=O)c2ccccc21
 : 16 | -21

Next section (four carried over from the part before).
Order of values – OX1R antag-1 | OX1R antag-2
O=c1c2ccccc2cnn1-c1ccc(Cl)cc1
 : 8 | -13
CN(C)C(=O)c1sccc1Oc1ccc(F)cc1[N+](=O)[O-]
 : 44 | -15
Cc1ccc(N2CCN(S(=O)(=O)N3CCCCCC3)CC2)cc1Cl
 : 4 | -10
CCn1c(=O)n(CC(=O)NCc2ccco2)c(=O)c2ccccc21
 : 16 | -21
CCC(=O)N=c1sc2cc(F)cc(F)c2n1C
 : 5 | -20
O=C1CCc2cc(S(=O)(=O)NC(Cc3ccccc3)C(=O)NC3CCCCC3)ccc2N1 (stereo not given)
 : 12 | -31
CSc1nc2cc3c(cc2n1C(=O)c1ccc(C)cc1)OCCO3
 : 8 | -16
Cc1nc(-c2nc(C(=O)NNS(C)(=O)=O)cs2)cs1
 : 9 | -9
CC(=O)Nc1ccc(OCC(O)Cn2nc(C)nc2C)cc1 (stereo not given)
 : 9 | -20
COc1cc(-c2ccc3oc(-c4ccsc4)cc3c2)cc(OC)c1OC
 : 22 | -32
COc1ccc(OC)c(/C=C/C(=O)N2C(=O)c3cccc(N)c3C2=O)c1
 : 35 | -16
Nc1nc(-c2cccnc2)nn1S(=O)(=O)c1ccccc1
 : 7 | -9
CC1(C)CC(=O)C(C2c3ccccc3S(=O)(=O)c3ccccc32)C(=O)C1
 : 17 | -18
COC(=O)c1cc(OC)c(OC)cc1NC(=O)c1ccco1
 : 41 | -11
CCn1cc(C(=O)OCC(=O)Nc2cc(S(=O)(=O)N(C)C)ccc2C)c(=O)c2ccc(C)nc21
 : 1 | -27
Cc1c(C(=O)N2CCCCC2)oc2ccc(S(=O)(=O)N3CC(C)CC(C)C3)cc12 (stereo not given)
 : 36 | 1
N#CCSc1nc2cc(C(=O)N3CCC(C(N)=O)CC3)ccc2c2nc3ccccc3n12
 : 11 | -6
CC(C)[C@H](NC(=O)c1ccccc1)C(=O)OCC(=O)NCc1ccc(F)cc1
 : 7 | -23
Cc1cc(C)cc(-c2nnc(SCC(=O)N3CCN(C(=O)c4ccco4)CC3)o2)c1
 : -1 | -32
CC1(C)CCN(Cc2ccccc2)C1CC#N (stereo not given)
 : 2 | -17
Cc1ccnc(NC(=O)CCC(=O)N(CC(=O)NC2CCCCC2)Cc2cccs2)c1
 : 14 | -40
CN(C)c1ccc(/C=N/Nc2cc(N3CCOCC3)nc(N3CCOCC3)n2)cc1
 : 2 | -24
COC(=O)c1sccc1NC(=O)/C=C/C(=O)O
 : 18 | 0
COc1ccc(-c2nc(-c3cccc([N+](=O)[O-])c3O)cc(=O)o2)cc1OC
 : 15 | -13
CCOC(=O)C(/C=C(\C#N)C(=O)OCC)=C(/N)N1CCN(c2ccc(OC)cc2)CC1
 : 1 | -6
Oc1cccc(/C=N/N2CCN(c3ccccn3)CC2)c1
 : 15 | -7
Cc1c2c(nc3c(C(=O)NC4CCCC4)cnn13)CCCC2
 : 21 | -22
CCCSc1nc(C)c2cc(C)cc(C)c2n1
 : 7 | -25
NS(=O)(=O)c1ccc(NC(=O)COC(=O)/C(=C/c2cccs2)c2cccs2)cc1
 : 34 | -5
N#Cc1ccc(OCC(=O)NN2Cc3ccccc3C2=N)cc1
 : 18 | -5
CCOc1ccc(C2CC(c3ccccc3C)n3nc(N)nc3N2)cc1 (stereo not given)
 : 8 | -7
CCC1CCCCN1CC(C)(C)NS(=O)(=O)c1ccccc1 (stereo not given)
 : 5 | -8
COC(=O)C1=C(C)OC(N)=C(C#N)C1C1CCCCC1 (stereo not given)
 : 8 | -9
Cc1ccccc1OCCCC(=O)Nc1nncs1
 : 5 | 3
COc1ccc(CNc2nccs2)cc1
 : 8 | -7
CCOc1ccc(OCC(=O)Nc2cc3c(cc2C(=O)O)OCCCO3)cc1
 : 27 | -3
CSC1=NCCN1C(=O)C(C)(C)Oc1ccc(Cl)cc1
 : 8 | -18
O=C(CSc1ncnc2sccc12)Nc1ccccc1F
 : 25 | -21
Nc1nc(CSc2nc3ccccc3[nH]2)cs1
 : 23 | -2
S=C(Nc1ccccc1)Nc1cccc(Cl)c1Cl
 : 9 | -10
CCCc1cc(=O)[nH]c(SCC(=O)c2cc(C)n(C(C)COC)c2C)n1 (stereo not given)
 : 15 | -20
O=C(NCCCN1CCc2ccccc2C1)C1CCN(S(=O)(=O)N2CCC3(CC2)OCCO3)CC1
 : 5 | -43
Cc1nnc(SCC(=O)NCC2CCCO2)n1-c1ccccc1 (stereo not given)
 : 22 | -14
CC(C)N(C)C1CCN(C(=O)Nc2ccc(Cl)cc2)CC1
 : 3 | -13
CCNS(=O)(=O)c1c(C)cc(C)c(N(C)S(=O)(=O)c2ccccc2)c1C
 : 22 | -20
COC(=O)c1c(C)oc(C)c1S(=O)(=O)N1CCOCC1
 : 1 | -1
CC1(C)Oc2ccc3ccc(=O)oc3c2/C(=C/NNC(N)=S)C1=O
 : -10 | -6
Cc1ccc(NC(=S)N2CCCCCC2)cc1
 : 6 | 4
Cc1ccc(-n2c(N)c(-c3nc4ccccc4n3C)sc2=S)cc1
 : 6 | -23

2 entries picked at random from the list so far:
Order of values – OX1R antag-1 | OX1R antag-2
COC(=O)c1c(C)oc(C)c1S(=O)(=O)N1CCOCC1
 : 1 | -1
CCOc1ccc(OCC(=O)Nc2cc3c(cc2C(=O)O)OCCCO3)cc1
 : 27 | -3

Next part.
Order of values – OX1R antag-1 | OX1R antag-2
Cc1ccc(Nc2nc(N)nc(CN3CCN(Cc4ccc5c(c4)OCO5)CC3)n2)cc1Cl
 : 17 | -23
COc1ccc(C)cc1NC(=O)CCN1CCN(c2ccccc2F)CC1
 : 6 | -27
CCOc1ccc2c(O)csc2c1
 : 0 | -15
FC(F)(F)c1cc(Cl)c2nc(-c3ccccc3)cn2c1
 : 23 | -12
Cc1cnc(C(=O)Nc2ccc(S(=O)(=O)NCC(C)C)cc2)cn1
 : 2 | -3
Cc1cccc(C)c1N1CCN(c2nc(N(C)C)oc(=O)c2C#N)CC1
 : 7 | -14
COc1ccc(NC(=O)CCN2C(=O)c3ccc([N+](=O)[O-])cc3C2=O)c(OC)c1
 : 34 | 6
CCN(c1ccccc1C)S(=O)(=O)c1cc2c3c(c1)CCC(=O)N3CCC2
 : 18 | -20
c1coc(-c2nnc3sc(-c4cccs4)nn23)c1
 : 17 | 4
O=C(NC1CCCC1)C(c1ccc(F)cc1)N(C(=O)c1csnn1)C1CCCC1 (stereo not given)
 : 12 | -18
Cn1c2c(c(=O)n(C)c1=O)CN(Cc1ccco1)CN2
 : 19 | -8
O=C(NCc1ccccc1F)C1CCCN1C(=O)NCc1ccccc1 (stereo not given)
 : 4 | -17
Cc1ccc(OCc2ccc(C(=O)N3CCOCC3)cc2)cc1C
 : 16 | -9
CC1(C(=O)NCc2cccnc2)CCC(=O)N1CCc1ccccc1 (stereo not given)
 : 6 | -17
COc1ccc(C(=O)C2CCN(S(=O)(=O)c3ccc4c(c3)OCCO4)CC2)cc1
 : 6 | -6
CCn1c(-c2csc(C(C)C)c2)n[nH]c1=S
 : 7 | 4
CCOC(=O)C1CCCN(C2CCN(Cc3nc(Cc4ccccc4)no3)CC2)C1 (stereo not given)
 : 13 | -20
CCOC(=O)C1CCN(Cc2cccc(OCc3ccccc3)c2)CC1
 : 7 | -23
CC(C)(C)NC(=O)C(=O)NN=C1CCCCCC1
 : -2 | 3
CC(Sc1nnc(Cc2cccs2)n1C1CCCCC1)C(=O)N1CCc2ccccc21 (stereo not given)
 : 29 | -3
CN1CCc2c(sc(NC(=O)c3ccc4ccccc4c3)c2C(N)=O)C1
 : 24 | -12
O=C(NCC1CCCO1)c1onc(CSc2ccc(F)c(F)c2)c1C(=O)O (stereo not given)
 : 34 | -19
CCOC(=O)/C=C/COc1ccccc1[N+](=O)[O-]
 : 21 | 5
COc1ccc2c3n([n+]([O-])c2c1)CCN=C3c1cc(Cl)c(N)c(Cl)c1
 : 45 | -9
N/C(=N\OC(=O)Cc1ccccc1)c1ccc(Br)cc1
 : 13 | -28
CCCC(C)NC(=O)Cc1ccccc1[N+](=O)[O-] (stereo not given)
 : 13 | -12
COc1ccc(CN(C(=O)c2ccc(-c3ccccc3)[nH]2)C(C(=O)NC(C)(C)C)c2ccncc2)cc1 (stereo not given)
 : 18 | -40
O=C(CCNS(=O)(=O)c1ccc(Cl)cc1)N1CCC2(O)CCCCC2C1 (stereo not given)
 : 16 | -17
O=C(NCc1ccccc1)c1noc2c1CCCC2
 : 4 | -8
CN(C(=O)c1ccccc1Cl)c1ccccc1
 : -1 | 11
CC(Oc1ccc(Br)cc1)C(=O)Nc1cc(Cl)ccc1N1CCN(C)CC1 (stereo not given)
 : 6 | 1
CC(C)(C)NC(=O)NC(=O)COC(=O)Cc1c(Cl)cccc1Cl
 : 16 | -28
Cc1cc(NC(=O)CCCn2nc([N+](=O)[O-])c(Br)c2C)no1
 : 19 | -11

Screening results deposited in PubChem BioAssay by The Scripps Research Institute Molecular Screening Center.

An excerpt; most or all hits stand in other tables.
